Screening data as filed in PubChem.
UCH37 DUB inh: blocks the human deubiquitinase UCH37; 0.33% of 330,000 active; inhibition, % (no concentration beside the values); purified proteasome/UCH37, Ub-AMC cleavage fluorescence; Q9Y5K5;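 active means mean of two replicates above 20%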;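 further: 0% = compound-free wells with enzyme and 100% = wells lacking proteasome; stock transfer was 100 nL into about 20 µL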
Target sequence (Q9Y5K5 whole entry, looked up): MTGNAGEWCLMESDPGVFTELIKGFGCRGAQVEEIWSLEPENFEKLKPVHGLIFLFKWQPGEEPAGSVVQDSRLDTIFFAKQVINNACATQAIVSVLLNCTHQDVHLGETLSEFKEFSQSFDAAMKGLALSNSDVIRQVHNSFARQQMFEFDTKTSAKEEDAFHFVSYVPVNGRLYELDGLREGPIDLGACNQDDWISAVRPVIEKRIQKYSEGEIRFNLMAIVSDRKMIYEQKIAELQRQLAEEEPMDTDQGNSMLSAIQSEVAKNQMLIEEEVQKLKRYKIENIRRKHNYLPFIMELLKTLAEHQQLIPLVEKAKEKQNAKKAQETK
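system = Proteasome-associated human UCH37 deubiquitinase | amount = 0.15 nM proteasome as dispensed | medium = pH 7.4 Tris-HCl (50 mM) with ovalbumin, ATP-MgCl2, DTT | incubation = 30 min preincubation with enzyme, 25 min cleavage at room temperature | detection = AMC fluorescence 355/460 nm | read-out basis = percent inhibition | controls = no-proteasome and no-compound wells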
T cruzi repl: T. cruzi replication inhibition; T. cruzi beta-gal in NIH3T3, luminescence, 90 h; inhibition, % (concentration not given with the values); 1.4% of 300,000 active; AID 1885;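 active means mean inhibition across valid replicates above about 55%, limit read from the data; inconclusive means mean below that limit but half or more replicates reach it; inactive means mean below it, under half of replicates reach it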;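 further: signal also drops with host cell toxicity which is not excluded here; 0% = plate median of DMSO wells and 100% = zero luminescence signal; higher percent means less beta-gal luminescence so fewer parasites; stock transfer was 50 nL into about 50 µL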
Beta apoptosis: beta cell apoptosis inhibition; INS-1E cytokine-induced death, ATP luminescence, 48 h; percent of positive-control rescue, neutral wells zero; protection from apoptosis, % (test concentration not listed); 0.8% of 300,000 active;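 active means all replicates at 75% or more, or half of them and the mean; inconclusive means half reach 75% but not the mean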;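 further: 0% = cytokine-treated negative control wells and 100% = positive control rescue; higher means more ATP so stronger rescue from cytokine killing; wells of about 40 µL received 100 nL stock; the first replicate is given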
LANA-H2A inh: blocks KSHV LANA binding to histone H2A/H2B; Q9QR71; inhibition, % (concentration not given with the values); cell-free LANA-H2A/H2B peptide, fluorescence polarization; 0.6% of 320,000 active; AID 2629; in the data active means inhibition mostly above about 10%, no sharp cut-off; inactive means mostly below about 6.7%;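 further: stock transfer was 7.5 nL into about 10 µL; 0% = median of vehicle wells and 100% = median of positive control wells; one replicate is shown; the record names a cut of 25% in any replicate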
A1 inh: inhibitors of the anti-apoptotic protein A1, read as caspase activation. 0.066% of 330,000 active. MEF A1-2A-BIM cells, Caspase-Glo 3/7 luminescence, 3 h; percent of clofoctol response, vehicle zero. AID 2462. caspase activation, % (no concentration beside the values);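 active means over half of replicate activation scores above 10%, or exactly half above 10 with the replicate mean above 10; inconclusive means replicate mean below 10 yet half the replicates above 10; inactive means over half of replicates below 10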;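 further: wells of about 30 µL received 50 nL stock; many hits fall short of the cut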
Calb FLC: C. albicans growth modulation with fluconazole; C. albicans CaCi-2 (fluconazole-resistant clinical isolate) + fluconazole, Alamar Blue growth, 48 h; AID 1979; 0.57% of 300,000 active; growth inhibition, % (concentration not given with the values);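 active means most replicates above 75%; inconclusive means exactly half above 75%; inactive means most below 75%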;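 further: all wells also contain fluconazole at 8 µg/ml as a sub-toxic cotreatment; 0% = median of DMSO wells and 100% = median of geldanamycin control wells; wells of about 8 µL received 7.5 nL stock; the first replicate is given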
RanGTP-Impb inh: inhibitors of RanGTP-importin-beta interaction, primary screen, biochemical, FRET, CFP-Ran, YFP-importin-beta, homogeneous; inhibition, % (concentration not given with the values); cell-free CFP-Ran/YFP-importin-beta FRET ratio; 1.1% of 300,000 active;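 active means most replicates above 15%; inconclusive means exactly half above 15%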;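 further: 0% = DMSO wells and 100% = Ran loaded with GDP instead of GTP; wells of about 40 µL received 100 nL stock; the first replicate is given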
Beta2AR agonist: human beta-2 adrenergic receptor agonism by FAP; 0.43% of 340,000 active; AID 504454; P07550; Am2.2-beta2AR cells, FAP receptor internalization, flow cytometry; reference of the scale not given here; response, % (test concentration not listed);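 active means response above a set limit, near 3 SD of response in nonfluorescent compounds, cut at about 42% in these data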;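 further: stock transfer was 100 nL into about 11 µL; a reference agonist was the positive control; negative values mostly stem from fluorescent compounds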
Target sequence (P07550 whole entry, looked up): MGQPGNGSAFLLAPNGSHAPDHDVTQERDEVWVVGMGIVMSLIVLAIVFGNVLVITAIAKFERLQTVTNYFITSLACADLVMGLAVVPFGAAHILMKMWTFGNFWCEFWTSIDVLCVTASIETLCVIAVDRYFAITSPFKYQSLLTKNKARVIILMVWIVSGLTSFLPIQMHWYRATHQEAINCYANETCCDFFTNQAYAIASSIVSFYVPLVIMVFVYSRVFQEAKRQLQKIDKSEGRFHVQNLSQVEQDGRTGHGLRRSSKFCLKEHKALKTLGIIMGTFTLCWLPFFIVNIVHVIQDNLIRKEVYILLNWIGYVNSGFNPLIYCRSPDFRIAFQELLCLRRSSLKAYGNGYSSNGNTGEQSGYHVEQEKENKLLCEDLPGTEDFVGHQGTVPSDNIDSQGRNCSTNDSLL
* marks the source's active call; other numbers are inactive results; u = inconclusive; x = no result given.

SMILES	UCH37 DUB inh	T cruzi repl	Beta apoptosis	LANA-H2A inh	A1 inh	Calb FLC	RanGTP-Impb inh	Beta2AR agonist
OC[C@H]1O[C@H](OCCc2ccc(O)cc2)[C@H](O)[C@@H](O)[C@@H]1O	3.6	x	6	3.0	-0.2	x	x	0
COc1ccc(O)c(C(=O)c2cnc3c(c2)c(C)nn3C)c1	4.2	-4	1	-6.6	0.2	-4	5.1	8
Cc1ccc(Nc2nc(CSc3nnc(-c4ccncc4)n3-c3ccccc3C)cs2)cc1	3.6	57*	3	-3.2	0.5	113*	0.1	9
COc1ccccc1N(CC(=O)Nc1ccc2c(c1)OCCO2)S(=O)(=O)c1ccc(C)cc1	5.9	19	-1	0.1	0.1	7	-0.4	-4
O=C(NCCC1CCCCN1S(=O)(=O)c1ccccc1)C(=O)NCc1ccncc1 (stereo not given)	0.7	-5	x	-3.2	0.1	3	2.3	-9
CCCCN(C)CCCNC(=O)c1cc(-c2cccnc2)nc2ccccc12	-0.7	47	2	0.2	0.4	3	0.4	-9
Cc1ccc(S(=O)CCNC(=O)Cc2ccccc2)cc1 (stereo not given)	0.4	-12	-6	-6.2	-0.2	2	0.8	-2
Cc1cc(NC(=O)COC(=O)Cn2c(C)csc2=O)ccc1Br	-1.3	2	-7	-6.9	0.5	-10	0.4	-4
O=C(c1c(F)cccc1F)N(Cc1cccs1)C1CCCC1	1.0	-21	10	-2.6	-1.0	-6	3.2	-5
COc1ccc2cc(C3=CC(=O)C[C@H](c4ccc5c(c4)OCO5)C3)ccc2c1	0.5	x	1	14	-0.5	x	x	1
CCOc1ccc(C(=O)Nc2ccc(N3CCCC3)cc2)cc1	0.3	0	11	3.7	-0.6	6	-1.8	10
C1CN=C(NC23CC4CC(CC(C4)C2)C3)C1	-0.5	10	-6	3.8	-1.1	10	-0.8	-1
Cc1cccc(C)c1OCc1cc(C(=O)N2CCCCCCC2)no1	x	19	-1	-0.9	-0.3	-9	2.0	-5
COc1cc(/C=C2/C(=O)ON=C2c2ccccc2)ccc1O	-2.9	5	-6	6.7	-0.3	1	-2.4	42*
COc1ccc(CCNC(=O)c2cccc(NS(=O)(=O)c3ccccc3F)c2)cc1OC	6.7	0	-6	-0.2	-0.1	14	2.6	8
O=C(Nc1nnc(C2CC2)s1)C1=NN(C2CCS(=O)(=O)C2)C(=O)CC1 (stereo not given)	3.8	-2	-2	-2.9	-0.8	-17	0.4	3
CCCCn1nc(CC(=O)NCCN(CC)CC)c2ccccc2c1=O	0.2	16	-1	-4.3	1.8	-1	1.5	-7
Cc1c(C(=O)Nc2ccccc2F)sc2ncn(CC(=O)N3CCOCC3)c(=O)c12	3.7	22	-10	2.0	0.2	-1	1.0	0
O=C(c1cc(-c2ccncc2)nc2c(Cl)cccc12)N1CCN(c2ccccc2F)CC1	x	20	-4	-3.8	0.4	4	0.2	17
O=C(CC1N=C2c3ccccc3N=C(SCc3ccc(F)cc3)N2C1=O)NCc1ccco1 (stereo not given)	-3.3	0	-5	1.2	-0.3	-4	0.7	1
CCCCCCCNC(=O)C1(CC2CC(c3ccc(Cl)cc3)=NO2)CCN(C(=O)C2CCCC2)CC1 (stereo not given)	-0.2	37	8	3.2	0.6	-4	u	-8
CC(=O)Nc1ccc(S(=O)(=O)N2CCN(Cc3csc(C)n3)CC2)cc1	1.3	-7	-2	2.9	-0.5	1	2.5	-1
Cc1cc(C)cc(N(C(=O)c2csnn2)C(C(=O)NC(C)(C)C)c2cccnc2)c1 (stereo not given)	-1.7	1	-1	4.4	-0.2	4	-1.3	-3
Cc1ccccc1C1NC(c2ccccc2C)C(C)C(=O)C1C (stereo not given)	2.3	26	3	-2.6	2.4	4	2.5	-6
Cn1c(=O)c(=O)n(C)c2cc(S(=O)(=O)N3CCCC3C(=O)NCc3cccs3)ccc21 (stereo not given)	1.3	4	2	-9.6	-0.1	-6	2.1	4

Reprinted at random: 2 compounds from above
SMILES	UCH37 DUB inh	T cruzi repl	Beta apoptosis	LANA-H2A inh	A1 inh	Calb FLC	RanGTP-Impb inh	Beta2AR agonist
O=C(c1cc(-c2ccncc2)nc2c(Cl)cccc12)N1CCN(c2ccccc2F)CC1	x	20	-4	-3.8	0.4	4	0.2	17
O=C(Nc1nnc(C2CC2)s1)C1=NN(C2CCS(=O)(=O)C2)C(=O)CC1 (stereo not given)	3.8	-2	-2	-2.9	-0.8	-17	0.4	3

Later entries
SMILES	UCH37 DUB inh	T cruzi repl	Beta apoptosis	LANA-H2A inh	A1 inh	Calb FLC	RanGTP-Impb inh	Beta2AR agonist
CCOC(=O)C(c1ccccc1)C(Nc1cc(C(F)(F)F)cc(C(F)(F)F)c1)c1ccccn1 (stereo not given)	3.7	3	x	-3.7	-0.4	-13	-1.5	0
O=C(NCCOc1ccc(Cl)cc1)C1CC(=O)N(c2ccc3c(c2)OCCO3)C1 (stereo not given)	6.3	x	1	-2.3	-0.6	x	x	5
O=C(NN1C(=O)c2ccccc2NC1c1cccnc1)c1ccc([N+](=O)[O-])cc1 (stereo not given)	2.3	48	0	-4.2	0.8	3	-1.5	2
Cc1ccc(C2Nc3ccccc3C(=O)N2CCCN2CCOCC2)cc1 (stereo not given)	-270	-1	-2	-1.6	0.0	-1	0.9	3
CN(Cc1nc(-c2cnccn2)no1)CC(O)c1ccccc1 (stereo not given)	0.5	-4	-3	-0.9	-0.4	-14	-1.6	3
Cc1cc(NS(=O)(=O)c2ccc(NC(=O)/C=C/c3ccccc3)cc2)nc(C)n1	1.3	x	-3	-0.7	0.9	x	x	5
COc1ccc(C(=O)NC23CC4CC(CC(C4)C2)C3)cc1	2.3	-9	x	-2.5	-0.2	-1	-1.1	-3
CN1C(CC(=O)Nc2ccc(Cl)cc2Cl)c2ccccc2CC1(C)C (stereo not given)	1.4	28	x	-0.1	-0.1	22	-2.4	-5
O=C(CCc1ccccn1)N1CCCC(N2CCN(c3ccc(F)cc3)CC2)C1 (stereo not given)	1.4	2	x	x	x	2	-4.9	3
CC(=O)NC1=NN(C(C)=O)C(c2ccc(C(C)C)cc2)S1 (stereo not given)	5.3	14	-8	-4.0	1.5	-27	4.7	-2
CCOP(=O)(OCC)C(NC(=O)Nc1ccc(Cl)c(Cl)c1)C(N)=O (stereo not given)	1.2	-8	-2	-3.0	1.4	-4	-1.1	2
COc1cc(NC(=O)c2cc([N+](=O)[O-])ccc2NC(=O)CNC2CCCCC2)cc(OC)c1	3.2	41	28	5.4	0.7	33	0.7	5
CCOc1ccc(NC(=O)c2cc(F)c(F)cc2Cl)cc1OCC	2.4	7	5	x	-0.4	14	-3.8	1
COc1cccc(NC(=O)C2CCN(S(=O)(=O)c3ccc4c(c3)N(C(C)=O)CCO4)CC2)c1	1.3	2	5	0.8	-0.5	-8	0.3	4
COc1ccc(N2CCN(C(c3cccc(OC)c3OC)c3nnnn3C3CCCC3)CC2)cc1 (stereo not given)	7.2	34	13	-3.7	-0.6	3	5.2	-2
O=S(=O)(Nc1nc2ccccc2nc1Nc1ccc2c(c1)OCCO2)c1cccs1	-4.5	5	x	-2.6	0.9	39	u	-11
Cc1nn(Cc2ccc(Cl)cc2Cl)c(C)c1NC(=O)c1nn(C)cc1Cl	2.3	-19	-6	3.0	0.0	-7	4.4	-7
O=C(O)c1cccc(N2C(=O)CSC2c2ccccc2)c1 (stereo not given)	1.0	-11	-3	0.5	1.2	1	-2.0	-2
CC1=C(C(=O)OCCOC(C)C)C(c2cc3c(cc2Br)OCO3)C2=C(CCCC2=O)N1 (stereo not given)	-32	26	-1	7.1	-0.9	-4	0.8	-18
O=S(=O)(c1ccccc1)N1CCNCC1	5.7	-25	-6	-1.5	0.3	2	-2.4	-5
NC(=S)N=Nc1c(O)n(CCCl)c2ccc(Cl)cc12	2.8	6	15	4.4	1.1	-42	-3.6	-2
COc1ccccc1C1CC(c2ccc(Cl)cc2Cl)Nc2nc(N)nn21 (stereo not given)	4.6	22	1	-0.5	0.0	-16	0.5	-6
COC(=O)CCNC(=O)Cn1cnc2sc3c(c2c1=O)CCCC3	5.0	-23	-6	0.4	1.0	0	-7.2	12
Cc1cc(C)c(CN2CCN(C(=O)Cn3ccc(NC(=O)OCc4ccccc4)nc3=O)CC2)c(C)c1	2.5	x	24	-6.4	-2.4	x	x	0
COc1ccc(NC(=O)C2CCN(S(=O)(=O)c3ccc4c(c3)NC(=O)CO4)CC2)cc1	0.7	-3	2	-6.6	0.0	6	-0.7	7
(list continues)
SMILES	UCH37 DUB inh	T cruzi repl	Beta apoptosis	LANA-H2A inh	A1 inh	Calb FLC	RanGTP-Impb inh	Beta2AR agonist
Cc1cc(Cl)c2oc(C(=O)NCCN3CCCCC3CO)c(C)c2c1 (stereo not given)	-1.9	-1	x	-2.1	-0.3	1	1.1	-6
CCCC(=O)Nc1ccc2c(c1)Cc1ccccc1-2	4.9	-1	x	5.6	-1.2	1	-0.9	-3
O=C(Nc1ccccc1Cl)/C(Cl)=C(\Cl)S(=O)c1ccccc1 (stereo not given)	2.3	u	123*	-5.9	1.9	82*	4.1	57*
O=C(NCCc1ccccc1)C1CCN(C2CCN(Cc3ccco3)CC2)CC1	2.7	6	-2	-0.6	1.8	-15	-0.1	-7
CCn1c(/C=C2\C(=O)Nc3ccccc32)nc2ccccc2c1=O	6.8	-1	x	-5.1	0.4	-5	4.5	2
CCCCn1c(N)c(N(CC(C)C)C(=O)CCCSc2nncs2)c(=O)[nH]c1=O	1.6	-13	-8	-0.3	-0.7	2	0.8	-3
C=C(C)COc1ccc(-c2ncnc(C(F)(F)F)c2-c2ccc(OC)cc2)c(O)c1	5.0	15	17	0.2	-0.4	4	7.1	0
Cc1cc(C)c2c(CN3CC(C)OC(C)C3)cc(=O)oc2c1C (stereo not given)	2.3	5	1	-0.4	-0.4	-4	-1.8	8
O=C(NCC(=O)N(CC1CCCO1)C(C(=O)NC1CCCCC1)c1cccnc1)c1cccs1 (stereo not given)	1.0	-7	1	-1.7	0.4	37	u	-38
COc1ccc(CCNC(=O)C(=O)NN=C2CCCCCCC2)cc1OC	2.4	13	-2	1.5	0.4	18	1.2	0
CCOc1ccc(NC(=O)CCNC(=O)C2CCN(S(=O)(=O)c3ccccc3)CC2)cc1	0.1	12	x	-2.5	0.9	0	1.6	1
COCc1cc(Sc2c(Cl)cccc2Cl)nc(-c2ccccc2)n1	4.5	11	8	1.2	-0.3	6	2.6	29
O=C(N/N=C/c1cc2c(cc1Cl)OCO2)c1ccc2c(c1)OCCO2	x	-9	4	-1.0	-0.9	19	3.3	5
COc1ccc2[nH]cc(CCCN3C(=O)c4ccccc4C3=O)c2c1	3.1	-11	3	-5.4	0.0	-1	7.9	1
COc1cc(/C=C2/C(=O)ON=C2C)ccc1OCc1ccccc1F	3.0	-2	-6	-2.8	-1.1	-6	-2.9	89*
Cn1c(=O)[nH]c(=O)c2c1nc(OC(=O)c1ccccc1)n2CC(O)COc1ccc(F)cc1 (stereo not given)	1.5	2	x	x	x	11	1.7	-7
O=C(COC(=O)[C@@H]1CC(O)CN1S(=O)(=O)c1ccc(Cl)cc1)NC(=O)NCc1ccccc1 (stereo not given in full)	0.5	-4	-7	-6.9	-0.2	-2	4.6	-3
O=C(c1ccco1)N(CCO)Cc1cc2cc3c(cc2[nH]c1=O)OCO3	-88	-7	-10	-2.5	-0.3	20	-9.1	2
